Screening results deposited in PubChem BioAssay by National Center for Advancing Translational Sciences (NCATS).
HP1b chromo inh = blocks HP1-beta chromodomain binding to methylated histone tails; P83916; AlphaScreen HP1-beta / biotin-H3K9me3 peptide binding; Potency, µM (highest dose often 114 µM), inactives show at the highest dose activity change, negative = inhibition, most hits filed as inhibitors; actives 0.56% (n = 390,000); AID 540317; also: potency is read from the fitted curve at half-maximal effect; nearly all actives have a fitted effect of over 70% in size; inactives centre near 23
Target sequence (P83916 whole entry, looked up): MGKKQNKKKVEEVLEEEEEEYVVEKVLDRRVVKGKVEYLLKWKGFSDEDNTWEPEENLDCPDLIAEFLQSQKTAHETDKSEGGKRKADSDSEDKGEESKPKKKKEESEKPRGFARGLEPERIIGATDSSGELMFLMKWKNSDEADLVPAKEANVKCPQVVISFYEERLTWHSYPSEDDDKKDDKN
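HP1-beta protein (50 nM final) preincubated 30 min at room temperature with biotinylated H3(1-18)K9me3 peptide (50 nM) in PBS pH 7.4, 0.01% Tween-20, then compound added for 30 min. AlphaScreen streptavidin donor/nickel chelate acceptor beads (10 ug/mL final), 30 min dark, luminescence read.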
JMJD2A Tudor inh = inhibitors of human JMJD2A Tudor domain | AlphaScreen JMJD2A-Tudor / H3K4me3 peptide binding | AID 504339 | actives 4.4% (n = 390,000) | O75164 | Potency, µM (highest dose often 114 µM), for the others: at the top dose activity change, negative = inhibition, most hits filed as inhibitors; also: potency is read from the fitted curve at half-maximal effect; % is scaled to controls: 0 for no effect and ±100 for the full control effect; nearly all actives have a fitted effect of over 50% in size
G9a inh = inhibitors of human histone lysine methyltransferase G9a; actives 8.8% (n = 350,000); Potency, µM (doses to about 102 µM), without a hit: at the top dose activity, negative = inhibition, hits mostly inhibitors; G9a H3K9 monomethylation, AlphaScreen, 2 h; AID 504332; Q96KQ7; also: potency is read from the fitted curve at half-maximal effect; % is scaled to controls: 0 for no effect and ±100 for the full control effect; nearly all actives have a fitted effect of over 75% in size
Target sequence (Q96KQ7 913-1193 limits assumed): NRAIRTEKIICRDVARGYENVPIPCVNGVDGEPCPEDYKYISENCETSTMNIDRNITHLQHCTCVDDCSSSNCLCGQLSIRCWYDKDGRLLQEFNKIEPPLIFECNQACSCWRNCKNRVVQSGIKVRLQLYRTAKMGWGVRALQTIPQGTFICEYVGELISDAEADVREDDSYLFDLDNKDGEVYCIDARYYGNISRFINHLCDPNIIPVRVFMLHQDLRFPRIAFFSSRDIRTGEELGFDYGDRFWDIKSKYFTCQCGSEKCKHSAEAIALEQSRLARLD
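Enzyme 20 nM + cpd, 15 min RT; add b-H3K9 pep 500 nM / SAM 20 uM; 2 h RT; anti-H3K9me1 Ab 0.5 ug/mL + SA donor / anti-rabbit acceptor beads 20 ug/mL each, 10 min; AlphaScreen read.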
Pin1 inhibitor = inhibitors of human Pin1 | Pin1 FP peptide displacement, HiFluor488, 10 min | Potency, µM (doses to about 115 µM), for the others: top-dose activity, negative = inhibition, usual class: inhibitors | actives 0.009% (n = 390,000); active = well fitted inhibition curve with a large enough effect in the polarisation, with a control signal flat, not every such curve was filed as active; inconclusive = small, poorly fitted or top-dose-only effect, or effect the other way, or a change in a side signal; inactive = no such curve, though single readings can be large or run the other way; the % refers to the polarisation; also: potency is read from the fitted curve at half-maximal effect; % is scaled to controls: 0 for no effect and ±100 for the full control effect
Target sequence (Q13526 whole entry, looked up): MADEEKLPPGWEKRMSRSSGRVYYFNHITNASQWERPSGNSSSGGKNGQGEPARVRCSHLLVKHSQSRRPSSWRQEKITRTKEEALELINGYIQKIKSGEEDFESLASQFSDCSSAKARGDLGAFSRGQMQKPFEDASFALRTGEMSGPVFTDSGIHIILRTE
PI4K2A block = inhibitors of human PI4K2A | activity change, negative = inhibition, % at 76.9 µM | purified PI4K2A, ADP-Glo luminescence, 1 h; active compounds read low | AID 1346378 | Q9BTU6 | actives 0.13% (n = 420,000); in the data active = activity change below about -50%; inconclusive = mostly about -30% to -49%;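 also: -100% = wells without enzyme as full effect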
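In this quantitative HTS, ADP production by PI4K2A was quantified luminescently after 1 h at ambient temperature; 100 microM adenosine served as plate-quality control.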
PGK inhibitor = T. brucei PGK inhibition | PGK/GAPDH coupled, Kinase-Glo luminescence, 60 min | Potency, µM (top dose mostly 57.5 µM), for inactives: top-dose activity change, negative = inhibition, usual class: inhibitors | actives 0.043% (n = 380,000); also: potency is read from the fitted curve at half-maximal effect; % is scaled to controls: 0 for no effect and ±100 for the full control effect; nearly all actives have a fitted effect of over 60% in size
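Recombinant glycosomal PGK reaction used 1,3-bisphosphoglycerate generated in-well by GAPDH (100nM final) in 100mM TEA pH 7.6, 5mM MgCl2, 0.01% Tween-20. After 60 minutes at room temperature, ATP was read by Kinase-Glo Plus luminescence end-point.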
ERG-DNA inh = inhibitors of human ERG Ets domain-DNA interaction. P11308. fluorescence polarization, His-ERG Ets domain / labelled DNA. Potency, µM (series often up to 76.9 µM), for inactives: at the highest dose FP activity, negative = inhibition, actives largely listed as inhibitors. actives 0.028% (n = 370,000); active = well fitted inhibition curve with a large enough effect in the polarisation, with a control signal flat; inconclusive = small, poorly fitted or top-dose-only effect, or effect the other way, or a change in a side signal; inactive = no such curve, though single readings can be large or run the other way; the % refers to the polarisation;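 also: polarization taken with two DNA probes labelled with fluorescein and Texas red; potency is read from the fitted curve at half-maximal effect; % of control where 0% means no effect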
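His-tagged ERG Ets domain (1 uM in the protein solution; 300mM KCl, 50mM Tris-HCl, 1mM EDTA, 1mM DTT, pH 7.5) received compound, then a probe mix of 5 nM fluorescein-DNA and 100nM Texas-615-DNA. Fluorescence polarization was read for both dyes.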
GLS inh = glutaminase GLS (human) inhibition | actives 0.21% (n = 410,000) | GLS enzymatic activity, qHTS titration | Potency, µM (highest dose often 45.5 µM), for the others: at the highest dose activity change, negative = inhibition, usual class: inhibitors | AID 624170; also: potency is read from the fitted curve at half-maximal effect; % is scaled to controls: 0 for no effect and ±100 for the full control effect
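Compounds were pin-transferred onto hKGA, after which L-glutamine (1 mM solution) and a detection mix of glutamate oxidase, HRP and Amplex Red were added. Initial and 30 min RT fluorescence reads were collected.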
Numbers without * were called inactive; i = inactive; u = inconclusive; x = not tested or not shown; & = joins results of further samples; [ ] = remark or other dose. Unless noted, calls follow the shape of the dose curve; as a rule, active = well fitted curve in the direction sought with a large enough effect; inconclusive = small, poorly fitted or top-dose-only effect, or another doubt; inactive = no such curve, though single readings can be large; an effect the other way counts as inactive or inconclusive.

(1) CC(=O)c1cc(-c2ccc(F)cc2)n(CCC(=O)NC2CCCCC2)c1C
(2) CCC(=O)Nc1ccc(NC(=O)CSc2nnc(-c3ccc(O)cc3)n2CC2CCCO2)cc1 (centres undefined)
(3) NC1C2CN(c3nc4c(cc3F)c(=O)c(C(=O)O)cn4-c3ccc(F)cc3F)CC12 (centres undefined)
(4) Cc1ccc(Cl)cc1NC(=O)C(=O)NCC(c1cccnc1)N1CCc2ccccc21 (centres undefined)
(5) Cc1cc2nc(-c3cccnc3SCC(=O)NCc3ccco3)[nH]c2cc1C
(6) CN(Cc1ccccc1)c1nc(CN2CCOCC2)nc2scc(-c3ccccc3)c12
(7) CC(=O)c1c(C)[nH]c(C2=NNC(=NCc3ccccc3)SC2)c1C
(8) COc1ccccc1-c1nnc(NC(=O)Cc2ccccc2)o1
(9) Nc1ccc2c(c1)C(=O)N(CCCC(=O)O)C2=O
(10) CCOC(=O)c1c(-c2ccc(C)o2)csc1N

assay / entry | 1 | 2 | 3 | 4 | 5 | 6 | 7 | 8 | 9 | 10
HP1b chromo inh | -6% | 15% | 31% | -6% | 10% | u | 24% | 50%[activator] | 34% | -5%
JMJD2A Tudor inh | -21% | -23% | -30% | u | -28% | u | -34% | 10% | -10% | -34%
G9a inh | -31%[59 µM] | 23%[0.501 µM] | -49% | u | 10µM* | u | -42%[59 µM] | 12% | -37%[12.7 µM] | 10µM*
Pin1 inhibitor | u | -1% | 16% | 0% | 16% | 6% | 20% | 7% | -19% | -1%
PI4K2A block | -2 | -3 | 0 | 0 | -6 | 0 | 0 | -4 | -3 | -18
PGK inhibitor | -3% | 2% | 1% | -11% | -12% | 7% | 4% | 0% | -5% | i
ERG-DNA inh | 0% | -3% | x | 4% | 8% | 1% | 8% | -3% | -5% | 3%
GLS inh | -12% | -2% | 2%&15% | 9% | 0% | 16% | 12% | 2% | 5% | 4%

(11) CCCc1nc(-c2cc3cc(C)ccc3[nH]c2=O)no1
(12) Cc1ccc(-c2nn3c(C)nnc3s2)cc1NCc1c(F)cccc1Cl
(13) Cc1cccc(N2CCN(C(=O)c3ccccc3NC(=O)C3=CSCCO3)CC2C)c1 (centres undefined)
(14) O=C(CCS(=O)(=O)c1ccccc1)Nc1ccc2c(c1)OCO2
(15) CC1C/C(=N\NC(=S)NCc2ccccc2)CC(C)(C)C1 (centres undefined)
(16) CCc1cc(C(=O)c2ccc(OC)cc2)c(NC(=O)CC(C)(C)CC(=O)O)s1
(17) CCn1c(SCC(=O)N(C(C)C)C(C)C)nnc1-c1cc2ccccc2cc1O
(18) COc1ccc(C(=O)/C=C2/c3ccccc3CC(C)(C)N2C)cc1
(19) COc1ccc(C2=NOC(C(=O)NCC(C)C)C2)cc1 (centres undefined)
(20) CCOC(=O)c1ccc(NC(=O)CSc2nnc(-c3cccs3)n2C)cc1
(21) Cn1c(=O)n(C)c2cc([N+](=O)[O-])c(N3CCN(C(=O)C(C)(C)C)CC3)cc21
(22) CC1(O)CC(c2ccc(Cl)cc2)=NN1C(=O)c1ccc(Cl)cc1 (centres undefined)

assay / entry | 11 | 12 | 13 | 14 | 15 | 16 | 17 | 18 | 19 | 20 | 21 | 22
HP1b chromo inh | 31% | 20% | -7% | -21% | u | -4% | -2% | -10% | 36% | 3% | 3% | 22%
JMJD2A Tudor inh | -19%[11.4 µM] | -11% | u | u | u | -29% | -18% | u | -11% | -23% | -21% | u
G9a inh | x | -8%[59 µM] | 20%[59 µM] | x | u | u | u | -21%[59 µM] | 9%[12.7 µM] | u | -4%[12.7 µM] | -14%
Pin1 inhibitor | -1% | 4% | -5% | 1% | 2% | -1% | -1% | -2% | -2% | 14% | 0% | -2%
PI4K2A block | -6 | -1 | -3 | -1 | 2 | 0 | 2 | 5 | 6 | -4 | -12 | 1
PGK inhibitor | -2% | 1% | i | -24% | i | -3% | i | -6% | 0% | -3% | i | -4%
ERG-DNA inh | -4% | x | 1% | 6% | 4% | -2% | 5% | 4% | 6% | -1% | 0% | -4%
GLS inh | 4% | -4% | 67%[activator] | 44%[activator] | -4% | 19% | 10% | 0% | -18% | 1% | 2% | 1%

Shown bar-delimited: entries from further up
no. | SMILES | HP1b chromo inh | JMJD2A Tudor inh | G9a inh | Pin1 inhibitor | PI4K2A block | PGK inhibitor | ERG-DNA inh | GLS inh
1 | CC(=O)c1cc(-c2ccc(F)cc2)n(CCC(=O)NC2CCCCC2)c1C | -6% | -21% | -31%[59 µM] | u | -2 | -3% | 0% | -12%
2 | CCC(=O)Nc1ccc(NC(=O)CSc2nnc(-c3ccc(O)cc3)n2CC2CCCO2)cc1 (centres undefined) | 15% | -23% | 23%[0.501 µM] | -1% | -3 | 2% | -3% | -2%
3 | NC1C2CN(c3nc4c(cc3F)c(=O)c(C(=O)O)cn4-c3ccc(F)cc3F)CC12 (centres undefined) | 31% | -30% | -49% | 16% | 0 | 1% | x | 2%&15%
4 | Cc1ccc(Cl)cc1NC(=O)C(=O)NCC(c1cccnc1)N1CCc2ccccc21 (centres undefined) | -6% | u | u | 0% | 0 | -11% | 4% | 9%
5 | Cc1cc2nc(-c3cccnc3SCC(=O)NCc3ccco3)[nH]c2cc1C | 10% | -28% | 10µM* | 16% | -6 | -12% | 8% | 0%
6 | CN(Cc1ccccc1)c1nc(CN2CCOCC2)nc2scc(-c3ccccc3)c12 | u | u | u | 6% | 0 | 7% | 1% | 16%
7 | CC(=O)c1c(C)[nH]c(C2=NNC(=NCc3ccccc3)SC2)c1C | 24% | -34% | -42%[59 µM] | 20% | 0 | 4% | 8% | 12%
8 | COc1ccccc1-c1nnc(NC(=O)Cc2ccccc2)o1 | 50%[activator] | 10% | 12% | 7% | -4 | 0% | -3% | 2%
9 | Nc1ccc2c(c1)C(=O)N(CCCC(=O)O)C2=O | 34% | -10% | -37%[12.7 µM] | -19% | -3 | -5% | -5% | 5%
10 | CCOC(=O)c1c(-c2ccc(C)o2)csc1N | -5% | -34% | 10µM* | -1% | -18 | i | 3% | 4%
11 | CCCc1nc(-c2cc3cc(C)ccc3[nH]c2=O)no1 | 31% | -19%[11.4 µM] | x | -1% | -6 | -2% | -4% | 4%
12 | Cc1ccc(-c2nn3c(C)nnc3s2)cc1NCc1c(F)cccc1Cl | 20% | -11% | -8%[59 µM] | 4% | -1 | 1% | x | -4%

An excerpt; rates above refer to the full screens.
